ALR H2O2 inh – inhibitors of human ALR sulfhydryl oxidase, primary screen, biochemical, H2O2 detection, HRP-luminol luminescence, single point. inhibition, % (test concentration not listed). hit rate 3.8% among 290,000. purified ALR, DTT oxidation;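 active means mean and each replicate at 75% or more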;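 further: stock transfer was 7.5 nL into about 7.5 µL; 0% = neutral wells and 100% = wells with inactivated enzyme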
Target sequence (P55789 whole entry, looked up): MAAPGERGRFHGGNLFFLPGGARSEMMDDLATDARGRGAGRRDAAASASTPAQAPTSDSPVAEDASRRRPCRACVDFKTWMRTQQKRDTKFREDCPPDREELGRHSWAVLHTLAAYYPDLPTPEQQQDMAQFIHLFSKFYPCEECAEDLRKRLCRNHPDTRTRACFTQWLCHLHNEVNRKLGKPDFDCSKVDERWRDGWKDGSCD
FGF22 binding – binders of human FGF22 protein, primary screen, FGF22 synaptogenesis inhibitor project, biophysical, thermal shift, single point; calls only at 9.99 µM; AID 651658, 2012; recombinant FGF22 thermal shift, SYPRO orange fluorescence; percent of sucrose octasulfate shift, DMSO zero; hit rate 1.5% among 340,000;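 active means melting point raised past a set limit in the mean and every replicate; three in four hits are not shown here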
HNF4A DNA FP – change in binding of human HNF4A to DNA, primary screen, biochemical, fluorescence polarization, FITC-DNA. Hepatocyte nuclear factor 4-alpha (Homo sapiens), P41235. 1 h. activity change, % at 10 µM. hit rate 0.3% among 360,000. AID 1224865, 2016; in the data active means activity change above about 30%, passing the limit was not always enough;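 further: controls were the assay level and a saturating level of protein; the project sought stronger binding though the title names inhibitors; some compounds called inactive have numbers as strong as hits; positive values seem to mean higher polarization but the record does not say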
LANA-H2B inh – blockers of LANA interaction with H2A/H2B – biochemical, FP readout, HTS, primary screen | Protein LANA1 (Human herpesvirus 8 type P (isolate GK18)), Q9QR71 | cell-free LANA-H2A/H2B peptide, fluorescence polarization | inhibition, % (concentration not given with the values) | hit rate 0.6% among 320,000; in the data active means inhibition mostly above about 10%, no sharp cut-off; inactive means mostly below about 6.7%;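 further: stock transfer was 7.5 nL into about 10 µL; 0% = median of vehicle wells and 100% = median of positive control wells; one replicate is shown; the record names a cut of 25% in any replicate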
Ecoli growth – E. coli growth inhibition, primary screen, OD600 | Escherichia coli growth, 23 h; active compounds read low | OD600 absorbance (concentration not given with the values) | hit rate 0.21% among 330,000 | AID 1053175, 2014;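 active means OD600 absorbance below the run mean of sample wells minus 3.6 SD, in any replicate, cut at about 0.56 in these data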;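 further: stock transfer was 300 nL into about 60 µL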
UCH37 inh – inhibitors of human UCH37 deubiquitinase, primary screen, biochemical, Ub-AMC cleavage, fluorescence; Ubiquitin carboxyl-terminal hydrolase isozyme L5 (Homo sapiens), Q9Y5K5; purified proteasome/UCH37; inhibition, % (test concentration not listed); hit rate 0.33% among 330,000;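 active means mean of two replicates above 20%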;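 further: 0% = compound-free wells with enzyme and 100% = wells lacking proteasome; stock transfer was 100 nL into about 20 µL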
Target sequence (Q9Y5K5 whole entry, looked up): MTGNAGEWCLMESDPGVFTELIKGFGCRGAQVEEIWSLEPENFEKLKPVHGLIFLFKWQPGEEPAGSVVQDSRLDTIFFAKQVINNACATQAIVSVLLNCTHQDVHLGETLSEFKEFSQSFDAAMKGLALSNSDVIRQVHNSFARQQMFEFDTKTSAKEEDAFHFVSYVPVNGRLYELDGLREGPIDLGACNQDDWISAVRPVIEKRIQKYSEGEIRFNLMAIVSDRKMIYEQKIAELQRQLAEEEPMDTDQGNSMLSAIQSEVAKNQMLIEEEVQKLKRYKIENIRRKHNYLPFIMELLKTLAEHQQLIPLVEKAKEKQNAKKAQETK
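Material: human UCH37 enzyme supplied as purified proteasome complex. Measure: % inhibition of Ub-AMC cleavage fluorescence. Medium: pH 7.4 Tris-HCl (50 mM) with ovalbumin, ATP-MgCl2, DTT. Times: 30 min preincubation with enzyme, 25 min cleavage at room temperature. Detection: AMC fluorescence intensity at 355/460 nm.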
Beta2AR agonist – beta2AR agonists driving receptor internalization, primary screen, cell-based, FAP fluorogen, flow cytometry; Beta-2 adrenergic receptor (Homo sapiens), P07550; Am2.2-beta2AR cells; reference of the scale not given here; response, % (test concentration not listed); hit rate 0.43% among 340,000; AID 504454, 2011;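 active means response above a set limit, near 3 SD of response in nonfluorescent compounds, cut at about 42% in these data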;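 further: stock transfer was 100 nL into about 11 µL; a reference agonist was the positive control; negative values mostly stem from fluorescent compounds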
Target sequence (P07550 whole entry, looked up): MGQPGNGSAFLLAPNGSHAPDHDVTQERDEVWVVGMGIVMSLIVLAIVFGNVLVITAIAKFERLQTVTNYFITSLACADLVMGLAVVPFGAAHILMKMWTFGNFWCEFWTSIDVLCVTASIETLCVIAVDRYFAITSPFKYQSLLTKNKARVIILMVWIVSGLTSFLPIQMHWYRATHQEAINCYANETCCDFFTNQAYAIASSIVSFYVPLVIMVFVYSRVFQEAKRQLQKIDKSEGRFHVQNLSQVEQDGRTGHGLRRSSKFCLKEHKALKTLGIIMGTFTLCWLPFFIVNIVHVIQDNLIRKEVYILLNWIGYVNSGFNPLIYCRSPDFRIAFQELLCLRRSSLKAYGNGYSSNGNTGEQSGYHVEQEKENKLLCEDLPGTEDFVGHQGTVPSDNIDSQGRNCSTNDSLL
The depositor's hits bear a star; i = inactive; nt = not tested or not shown. Not all compounds are listed. The share of hits here may be higher or lower than overall.

Structure,ALR H2O2 inh,FGF22 binding,HNF4A DNA FP,LANA-H2B inh,Ecoli growth,UCH37 inh,Beta2AR agonist
CCC(=O)N1CCN(c2ccc(NC(=O)c3ccc(N4CCCC4)c([N+](=O)[O-])c3)cc2)CC1,-4.0,i,0.9,3.3,0.71,4.0,4.3
Cc1cc(C)n2nc(C(=O)OCC(=O)N3C(C)CCCC3C)nc2n1 (centres undefined),-5.9,i,-1.1,1.7,0.68,3.1,-1.4
COc1ccc(C(c2c(C)n(C)n(-c3ccccc3)c2=O)c2c(C)n(C)n(-c3ccccc3)c2=O)cc1O,35.2,nt,nt,0.2,0.647,3.3,nt
COc1ccccc1NC(=O)CN1CCN(CC(=O)Nc2ccc(F)cc2F)CC1,nt,i,0.4,nt,0.735,1.8,4.9
COC(=O)c1ccc(Oc2nc(N3CCCCC3)nc(N3CCOCC3)n2)cc1,0.5,nt,1.6,4.7,0.69,-1.4,5.6
O=C(c1c[nH]c(C(=O)N2CCN(Cc3ccccc3)CC2)c1)C1CCCCC1,-9.4,i,1.4,1.6,0.67,-2.3,-10.0
CN(C)Cc1cccc(-c2ccccc2)c1O,nt,i,4.6,nt,0.635,-5.2,30.1
O=C(COC(=O)[C@H](Cc1ccccc1)NC(=O)c1cccs1)Nc1ccccc1C(F)(F)F,2.7,nt,0.7,-0.5,0.742,1.7,8.7
Cc1ccc(C(=O)N2CCCC(Nc3ccc(C(C)C)cc3)C2)cn1 (centres undefined),64.6,i,2.5,nt,0.67,2.0,4.5
Cc1cccc(NC(=O)COC(=O)CNC(=O)C2CCCCC2)c1,2.0,nt,0.2,0.8,0.72,1.3,-2.1
Cc1cc(NCc2ccccc2)n2ncc(-c3ccccc3)c2n1,-32.4,i,2.6,-1.2,0.731,-273.1,-4.1
COc1ccc2cc(C3=CC(=O)CCC3)ccc2c1,nt,i,-1.2,nt,0.718,-51.6,10.3
Cc1ccc(NN2C(=O)C=C(c3ccccc3)C2=O)cc1,nt,nt,0.0,nt,0.65,5.4,nt
Cn1c(SCc2cccc(C(F)(F)F)c2)nnc1-c1ccco1,nt,nt,5.6,2.6,0.68,5.0,-7.8
CCC(=O)c1cn(CC(=O)Nc2cccc(C)c2C)c2ccccc12,-3.5,i,-5.8,0.6,0.625,0.7,-1.9
CS(=O)(=O)N1CCN(c2ncccn2)CC1,-1.8,nt,0.3,0.5,0.726,-3.1,3.5
CC(C)CC1NC(=O)N(CC(=O)N2CCN(S(=O)(=O)c3ccc4ccccc4c3)CC2)C1=O (centres undefined),nt,nt,-1.8,1.0,0.705,1.0,-23.4
CCN1C(=O)[C@H]2[C@@H](c3ccc(OC)cc3)N3C(=O)CN(Cc4ccccc4)C(=O)[C@@]3(C)[C@H]2C1=O,-5.6,i,3.3,-3.6,0.786,2.8,-8.5
CC(=O)Nc1ccc(OCC(=O)c2cc(C)ccc2C)cc1,nt,nt,1.3,19.3*,0.693,-0.2,1.5
Cc1ccc(S(=O)(=O)NCCN=C(CN2CCOCC2)NS(=O)(=O)c2ccc(C)cc2)cc1,-0.4,nt,-6.7,-6.1,0.664,1.7,0.5
Cc1ccc(-c2nc3c4ccccc4ccn3c2CN2CCCCC2)cc1,-28.8,i,0.0,-14.8,0.702,-7.6,-4.7
COC(=O)c1n[nH]nc1-c1ccccc1,1.5,nt,4.7,1.6,0.685,1.0,-3.2
CCCCCc1cc(=O)oc2c(C(CCN3CCCCC3)c3cc(OC)c(OC)c(OC)c3)c(OC)cc(OC)c12 (centres undefined),nt,i,4.9,-9.8,0.621,-0.4,21.4
O=C(COc1ccc([N+](=O)[O-])cc1)NCc1cccnc1,-1.4,i,0.1,1.1,0.686,4.7,-2.0
N#Cc1ccccc1OCC(=O)N1CCN(S(=O)(=O)c2ccc(Cl)cc2)CC1,2.9,i,-3.9,5.0,0.713,3.3,-10.2
Cc1ccc(NC(=O)CNCC(c2ccccc2)N(C)C)cc1F (centres undefined),-0.5,i,-5.5,-0.3,0.661,1.5,2.0
COC(=O)c1cc(C(=O)Nc2nnc(CC(C)C)s2)cc([N+](=O)[O-])c1,0.0,nt,-0.8,0.9,0.665,3.0,-2.4
O=C(Nc1cccnc1)c1ccc(Cl)c(S(=O)(=O)N2CCCC2)c1,4.8,i,-3.1,2.9,0.679,1.4,-10.2
O=C(COc1ccc(Cl)cc1)NCCCNC(=O)c1ccncc1,-0.1,i,1.9,0.2,0.658,0.7,-1.1
N#CCCn1cc(C(=O)Nc2ccc(C(=O)O)cc2)c(-c2ccc([N+](=O)[O-])cc2)n1,0.9,nt,-7.1,-4.6,0.641,2.6,-7.2
CCCCn1c(S(=O)(=O)O)nc2ccccc21,nt,nt,3.0,5.5,0.692,2.7,5.2
O=C(COc1ccc2c(c1)OCO2)Nc1ccccc1C(F)(F)F,nt,i,1.9,-2.2,0.699,-2.2,3.1
Cc1c(Br)cc(C(=O)NC2CCCCC2)c(C)c1C,-13.8,nt,-0.2,-0.2,0.699,2.0,4.5
O=C1NC(Nc2ccccn2)(C(F)(F)F)C(=O)N1c1ccc(F)cc1 (centres undefined),-1.0,i,4.9,3.2,0.687,1.6,4.7
CN(C)c1ccc(C2N(C(=O)N3CCOCC3)CCN2S(=O)(=O)c2ccccc2)cc1 (centres undefined),-11.0,nt,-6.1,-1.7,0.712,11.9,-4.3
CC1(NC(=O)Cc2ccc(S(=O)(=O)N3CCOCC3)s2)CCS(=O)(=O)C1 (centres undefined),nt,i,0.8,-1.7,nt,nt,3.8
c1ccc(-c2cnnn2-c2ccccc2)cc1,-8.3,i,-3.8,-1.8,0.635,4.3,-3.1
COc1ccccc1NC(=S)NCC1CCCO1 (centres undefined),0.6,i,4.5,4.4,0.652,1.8,3.3
Cc1ccc(-c2csc3nnc(SCC(=O)N4CCN(Cc5ccccc5)CC4)n23)cc1,nt,nt,1.3,-2.9,0.642,0.6,2.6
Cc1cc(-c2nnc(CCC(=O)N(C)Cc3cccc4ccccc34)o2)no1,-6.2,nt,-2.8,-4.5,nt,nt,0.3
CC(C(=O)Nc1cccnc1)n1cc([N+](=O)[O-])cn1 (centres undefined),-9.6,i,-0.2,3.0,0.696,0.6,-2.9
Cc1ccc(S(=O)(=O)NCC(=O)NCC(=O)N2CCC(C)CC2)cc1,-2.7,i,-1.7,0.3,0.653,1.1,2.5
O=C(CN1C(=O)COc2ccc(Cl)cc21)N1CCOCC1,1.7,i,-1.9,1.2,0.699,1.0,-1.1
CCCCc1ccc(S(=O)(=O)N2CCC3(CC2)OCCO3)cc1,-6.9,i,1.8,-1.2,0.709,3.5,0.1
Cc1c([N+](=O)[O-])cc(C(=O)Nc2ccc(Cc3ccncc3)cc2)cc1[N+](=O)[O-],0.5,i,3.6,-6.2,0.661,1.1,7.8
Cc1cc(C(F)F)n2ncc(C(=O)N3CCCCC3)c2n1,1.4,nt,2.6,-0.6,0.744,4.6,-2.9
COc1ccc2[nH]c(C)c(CCN(Cc3cccs3)C(=S)Nc3ccccc3OC)c2c1,nt,i,2.7,11.1,0.735,3.1,4.4
COc1ccc(C(=O)N2CCC(C(=O)c3c(C)cc(C)cc3C)CC2)cc1,-10.5,i,-2.4,-0.9,0.671,0.2,0.9
C/C(=N\NS(=O)(=O)c1ccc(Cl)c([N+](=O)[O-])c1)c1ccc(C)o1,41.4,nt,2.8,0.3,nt,nt,-1.6
Cn1c(=O)c2c(SCC(=O)Nc3cccc(F)c3)nc(-c3ccco3)nc2n(C)c1=O,-0.3,i,1.1,1.9,0.689,-7.5,-0.8
CCCNC(=O)C1CCN(S(=O)(=O)c2cccc3nonc23)CC1,-7.2,i,-0.8,-1.8,0.692,0.5,9.1
Cc1ccc(CNC(=O)CCn2cc(-c3ccc(C)cc3)nc2CCN)cc1,4.4,i,-1.1,6.5,nt,nt,1.9
CCC(=O)NC(Nc1cccc(C)n1)(C(F)(F)F)C(F)(F)F,nt,nt,-0.7,-0.7,0.675,3.4,-2.5
CCCC(=O)NCc1ccncc1,nt,i,nt,-3.4,0.646,0.7,nt
Cc1cc(NC(=O)COC(=O)c2ccco2)no1,1.6,i,4.0,-2.2,0.73,-1.9,-5.6
CCOC(=O)N1CCN(C(=O)c2ccccc2NC(=O)c2ccc(OC)cc2)CC1,-8.8,nt,1.4,2.2,0.673,5.7,0.5
COc1ccc2nc(NC(=O)CSc3n[nH]c(N)n3)sc2c1,90.3*,i,-3.0,3.4,0.587,3.6,36.8
CCn1c2ccccc2c2cc(CN3CCN(S(=O)(=O)CC)CC3)ccc21,-22.6,i,nt,-0.7,0.663,0.6,nt
Cc1cc2n(n1)C(c1sccc1C)Nc1ccccc1-2 (centres undefined),90.6*,nt,0.6,-2.1,0.64,-21.9,0.2
Cc1ccccc1OCCNC(=S)Nc1ccccc1,41.1,nt,0.4,-4.7,0.702,-1.2,-1.3

Going on with the list.
Structure,ALR H2O2 inh,FGF22 binding,HNF4A DNA FP,LANA-H2B inh,Ecoli growth,UCH37 inh,Beta2AR agonist
O=C(Cc1cccs1)NCc1cccs1,-6.1,i,5.2,-1.6,0.703,4.1,-3.0
COCCN(CC(=O)NCc1ccccc1)C(=O)CCC(=O)Nc1ccccn1,-6.1,nt,-3.8,4.6,0.732,3.4,10.1
COc1ccc(CCNC(=O)CSCc2ccc(Br)cc2)cc1OC,-7.6,i,1.9,-4.1,0.674,4.6,-12.8
CC(NC(=O)C1CCCCC1)c1ccc2c(c1)OCCO2 (centres undefined),nt,nt,3.9,-0.4,0.71,0.5,3.7
COc1ccc(C(=O)NNC(=O)CSc2nnc3ccccn23)cc1OC,nt,i,-1.1,1.6,0.7,-2.2,-1.1
Cc1cc(C)nc(SCc2cccc(C(=O)O)c2)n1,-12.4,i,2.1,-7.8,0.707,0.3,7.5
Cc1ccc(C(=O)N2CCC(Cc3ccccc3)CC2)cc1[N+](=O)[O-],-12.0,i,-1.1,0.8,0.682,3.8,1.2
Cc1ccc(N2C(S)=C(C#N)C(=O)NC2c2cccs2)cc1 (centres undefined),29.3,nt,1.5,-3.9,0.677,5.2,4.1
O=C(CSc1nc2ccccc2c(=O)n1CCCN1CCOCC1)Nc1cccc(S(=O)(=O)N2CCCCCC2)c1,-22.6,nt,5.1,1.9,0.725,3.5,33.1
